# miR-21 reporter – qHTS Assay for Modulators of miRNAs and/orActivators of miR-21. Potency, µM (doses to about 38.3 µM), without a hit: top-dose reporter change, positive = more light. HeLa miR-21 FLuc reporter, luciferase, 48 h. 340,000 tested, under 10 active; active = well fitted rising curve with a large enough effect; inconclusive = small, poorly fitted or top-dose-only effect; inactive = no such curve, though single readings can be large or run the other way;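 note: % of control where 0% means no effect; miR-21 action dims this reporter so a rising signal means less miR-21 action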
#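 Luminescence from a firefly luciferase reporter carrying a miR-21 binding site downstream, stably expressed under a CMV promoter in HeLa cells that make miR-21 endogenously, reports miRNA modulation after 48 h compound exposure up to approximately 40uM final.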
# Rango-impB inh – qHTS Assay for Inhibitors of Rango (Ran-regulated importin-beta cargo) - Importin beta complex formation; Potency, µM (titrated, usually from 92.2 µM), inactives show at the top dose inhibition of complex formation; 340,000 tested, 0.031% active; Rango CFP/YFP FRET sensor + importin beta, 45 min; AID 540263, 2011; Importin subunit beta-1 (Homo sapiens), Q14974; active = rising FRET ratio curve, often small or poorly fitted; inconclusive = mostly compound fluorescence or quenching in the first reads; inactive = flat curves in all reads;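 note: potency is the fitted concentration of half-maximal effect; 0% = DMSO wells and 100% = buffer wells lacking importin beta; nearly all actives have a fitted effect of over 15% in size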
# Target sequence (Q14974 whole entry, looked up): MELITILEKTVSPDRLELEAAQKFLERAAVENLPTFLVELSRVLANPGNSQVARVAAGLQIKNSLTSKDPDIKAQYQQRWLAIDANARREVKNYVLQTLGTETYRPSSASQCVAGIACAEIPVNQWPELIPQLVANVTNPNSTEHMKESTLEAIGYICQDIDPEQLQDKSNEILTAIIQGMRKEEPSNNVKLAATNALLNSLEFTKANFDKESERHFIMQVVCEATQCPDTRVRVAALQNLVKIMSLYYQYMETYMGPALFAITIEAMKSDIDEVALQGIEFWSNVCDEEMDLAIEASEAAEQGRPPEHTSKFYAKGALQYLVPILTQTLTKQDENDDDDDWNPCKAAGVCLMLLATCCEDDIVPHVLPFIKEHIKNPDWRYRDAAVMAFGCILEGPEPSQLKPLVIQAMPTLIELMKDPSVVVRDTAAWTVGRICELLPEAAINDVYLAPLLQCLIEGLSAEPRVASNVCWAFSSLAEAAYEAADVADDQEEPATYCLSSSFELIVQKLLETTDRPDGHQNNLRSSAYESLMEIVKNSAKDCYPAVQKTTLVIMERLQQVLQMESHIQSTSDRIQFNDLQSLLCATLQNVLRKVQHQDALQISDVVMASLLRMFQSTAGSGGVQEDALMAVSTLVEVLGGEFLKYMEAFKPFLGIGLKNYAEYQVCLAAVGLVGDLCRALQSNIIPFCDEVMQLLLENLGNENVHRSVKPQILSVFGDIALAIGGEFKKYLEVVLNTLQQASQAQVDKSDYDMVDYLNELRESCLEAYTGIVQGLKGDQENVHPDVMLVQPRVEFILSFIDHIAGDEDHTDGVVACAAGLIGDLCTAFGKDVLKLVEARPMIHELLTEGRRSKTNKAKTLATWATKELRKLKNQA
#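 FRET biosensor (snurportin 1 IBB flanked by EYFP and cerulean), 50 nM, with compound 5 min, then 0.125 microM importin beta in PBS, 1 mM DTT, 0.02% Tween-20, 0.1% BSA. CFP/YFP ratio read after 45 min at room temperature; pre-read flags interference.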
# Rango release inh – qHTS Assay for Inhibitors of RanGTP induced Rango (Ran-regulated importin-beta cargo) - Importin beta complex dissociation. Snurportin-1 (Homo sapiens) + GTP-binding nuclear protein Ran (Homo sapiens) + Importin …. 340,000 tested, 0.071% active. Potency, µM (titrated, usually from 46.1 µM), for inactives: at the highest dose activity change, negative = inhibition. Biochemical FRET Rango-importin beta, RanGTP-induced dissociation; active means falling FRET ratio curve, often poorly fitted, with flat reads before Ran was added; inconclusive means other falling curves, or compound fluorescence or quenching; inactive means flat or rising ratio curve;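 note: potency is the fitted concentration of half-maximal effect; % of control where 0% means no effect; nearly all actives have a fitted effect of over 45% in size; -100% = wells without RanGTP and RCC1; the record marks most hits as doubtful in a second field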
#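 Recombinant Rango FRET biosensor (EYFP–snurportin 1 IBB–cerulean CFP10) at 0.1 uM premixed with 0.25 uM importin beta in PBS, 1 mM DTT, 0.02% Tween-20, 0.1% BSA. Compound added 5 min; RanGTP-RCC1 (0.6 uM Ran, 2 mM GTP, 0.2 uM RCC1) then triggers release, read at 45 min.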
# GLA inh pH 4.5 – qHTS Assay for Inhibitors of Human alpha-Galactosidase at pH 4.5. Alpha-galactosidase A (Homo sapiens), P06280. purified enzyme, 4-MU-alpha-Gal fluorescence, pH 4.5. activity change, negative = inhibition, % at 105 µM. 230,000 tested, under 10 active. AID 1467, 2008; inconclusive = small, poorly fitted or top-dose-only inhibition, or a rising curve; inactive = flat fitted curve, though single readings scatter; no compound was filed as active;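 note: 0% = full activity with enzyme and -100% = basal without enzyme; dose as in the result columns while the protocol names 77 µM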
# Active calls of the source: *; ? = inconclusive; . = no result given; & = joins results of further samples.
# The line under a structure holds: miR-21 reporter, Rango-impB inh, Rango release inh, GLA inh pH 4.5
CC(=O)O[C@H]1[C@H]2O[C@]23[C@@H]2CC[C@]4(O)C[C@@H](O)CC[C@]4(C)C2CC[C@]3(C)[C@H]1c1ccc(=O)oc1 (stereo partly drawn)
    ., -0.1%, 13%, .
COc1cc2c(cc1OC)C(c1c(O)n(CCc3ccccc3)c(=S)[nH]c1=O)NCC2 (stereo not drawn)
    0%, ?, 10%, 1
COc1ccc(C(CC(=O)N2CCC3(CC2)OCCO3)NS(=O)(=O)c2ccc(F)cc2)cc1 (stereo not drawn)
    1%, 3.3%, 1%, 9
CCOC(=O)c1nc2ccccc2c(=O)n1-c1cccc(C)c1
    -3%, 3.5%, -3%, -9
Cc1ncc(CN2CCCC(C(=O)c3cccc(Cl)c3)C2)s1 (stereo not drawn)
    -3%, 0.2%, 13%, 3
CCCCCc1nc2ccccc2c(=O)n1-c1ccccc1[N+](=O)[O-]
    1%, 0.5%, -1%, -17
Cc1nn(-c2ccccc2)c2c1P(=O)(O)/C(=C1\N(C)c3ccccc3C1(C)C)C=N2
    -10%, ?, ?, -10
C(=N\NC1=NCCCCC1)/c1c[nH]c2ccccc12
    -3%, -0.3%, -6%, -1
CC1CCC(C(C)C)C(OC(=O)Cn2c(COc3ccccc3)[n+](C)c3ccccc32)C1 (stereo not drawn)
    ?, 7.0%, 8%, 1
O=C1CN(C(=O)CN2CCCCC2)C(c2ccccc2)c2cc(Br)ccc2N1 (stereo not drawn)
    2%, -2.9%, 3%, -8

# 7 entries picked at random from the list so far, as already listed:
# The line under a structure holds: miR-21 reporter, Rango-impB inh, Rango release inh, GLA inh pH 4.5
Cc1ncc(CN2CCCC(C(=O)c3cccc(Cl)c3)C2)s1 (stereo not drawn)
    -3%, 0.2%, 13%, 3
Cc1nn(-c2ccccc2)c2c1P(=O)(O)/C(=C1\N(C)c3ccccc3C1(C)C)C=N2
    -10%, ?, ?, -10
CC(=O)O[C@H]1[C@H]2O[C@]23[C@@H]2CC[C@]4(O)C[C@@H](O)CC[C@]4(C)C2CC[C@]3(C)[C@H]1c1ccc(=O)oc1 (stereo partly drawn)
    ., -0.1%, 13%, .
COc1ccc(C(CC(=O)N2CCC3(CC2)OCCO3)NS(=O)(=O)c2ccc(F)cc2)cc1 (stereo not drawn)
    1%, 3.3%, 1%, 9
COc1cc2c(cc1OC)C(c1c(O)n(CCc3ccccc3)c(=S)[nH]c1=O)NCC2 (stereo not drawn)
    0%, ?, 10%, 1
CCCCCc1nc2ccccc2c(=O)n1-c1ccccc1[N+](=O)[O-]
    1%, 0.5%, -1%, -17
CCOC(=O)c1nc2ccccc2c(=O)n1-c1cccc(C)c1
    -3%, 3.5%, -3%, -9

# Carrying on:
# The line under a structure holds: miR-21 reporter, Rango-impB inh, Rango release inh, GLA inh pH 4.5
CN(C(=O)c1ccc(Cl)nc1)C1(c2ccccc2Cl)CCCCC1=O (stereo not drawn)
    -2%, -0.4%, -13%, -1
O=C(c1cc(-c2ccccc2)on1)N1CCC2(CC1)OCCO2
    -56%, ., ., 1
O=C1C(Cl)=CC(=Nc2ccc(O)cc2)C=C1Cl
    ., 0.1%, -15%, .
Cc1noc(C(=O)Nc2sc3c(c2C#N)CCC3)c1Cl
    -17%, ?, -27%, -6
CNS(=O)(=O)c1ccc(N=Cc2c(O)n(-c3cccc(C)c3)c(=O)[nH]c2=O)cc1
    1%, -2.1%, -6%, 0
COc1cccc(O)c1CN1CCCC(C(=O)c2sccc2C)C1 (stereo not drawn)
    0%, 0.0%, -8%, 2
O=c1[nH]c(=S)[nH]c(O)c1N=Nc1ccc2c(c1)OCO2
    -29%, 3.3%, 11%, -7
COc1ccc(OC)c(C(c2c(O)c3ccccc3oc2=O)c2c(C)n(C)n(-c3ccccc3)c2=O)c1 (stereo not drawn)
    -5%&8%, 0.7%, -5%, -1
COc1ccc(/C=C/C(=O)c2c(O)n(CCC3=CCCCC3)c(=O)[nH]c2=O)cc1OC
    -3%, -1.4%, 20%, 6
O=C1NC(=S)NC(=O)C1=Cc1cccn1-c1ccc(O)cc1
    ?, ?, 0%, ?
CN1CCN(c2ccc([N+](=O)[O-])c(NCC3CCCO3)c2)CC1 (stereo not drawn)
    -13%, -0.8%, 3%, 6
COc1c(C=C2C(=O)NC(=O)NC2=O)c(CCN(C)C(=O)c2ccccc2)cc2c1OCO2
    -2%, -1.3%, -7%, .
CCC(=O)N1CC(=O)Nc2ccc(F)cc2C1c1ccccc1 (stereo not drawn)
    -2%, 3.9%, -1%, -2
O=c1[nH]c(O)c(C=Nc2cccc(F)c2)c(=O)[nH]1
    1%, 1.4%, -15%, .
O=C(c1cccs1)N1C2CCC1CC(O)(c1cccnc1)C2 (stereo not drawn)
    -1%, 0.1%, -12%, -1
CCN(CC)CCNCC(=O)Nc1ccc(Cl)cc1C(=O)c1ccccc1
    -3%, -2.6%, 2%, 2
COc1cc(-n2c(=S)[nH]c3ccc(C)cc3c2=O)c(Cl)cc1Cl
    17%, -2.5%, 8%, 4
CN(C)Cc1c[nH]c2ccccc12
    ., -0.5%, 5%, 1&3
COCOC1CCC2C3CCC4=CC(=O)CCC4=C3C=CC12C (stereo not drawn)
    ., ?, 21µM*, .
CCCCN1CC(O)=C(c2nc3ccccc3s2)C1=N
    -82%, ?, -10%, 2
CCn1c(O)c(C=Nc2ccc(S(N)(=O)=O)cc2)c(=O)n(CC)c1=S
    11%, -2.5%, -14%, -2
CN1CCC(N2CC3CC(C2)c2cccc(=O)n2C3)CC1 (stereo not drawn)
    -2%, 0.7%, -10%, 8
O=C(O)c1ccc(Cl)nc1
    -4%, 0.5%, -6%, 0
Cn1cc(C(=O)OCC(=O)NC2CCCCC2)c2ccccc21
    ., ?, 11%, .
CN(C)c1ccc(/C=C/C=C2/C(=O)NC(=O)N(c3ccccc3)C2=O)cc1
    -5%, 1.2%, -5%, 6
CCn1cc(C(=O)N2CCC3(CC2)OCCO3)c(=O)c2cc(S(=O)(=O)N3CCCC3)ccc21
    0%, 0.8%, 0%, 7
O=C(O)CCCC[C@@H]1SC[C@@H]2NC(=O)N[C@@H]21
    ., -2.4%, 6%, .
CCOP(=O)(OCC)C(O)c1ccc2c(c1)OCO2 (stereo not drawn)
    0%, -5.2%, 18%, 0
CCOC(=O)c1ccc(N=Cc2c(O)n(-c3ccc(OC)cc3)c(=S)[nH]c2=O)cc1
    -7%, 2.1%, 8%, 2
Cc1ccccc1-n1c(-c2ccc([N+](=O)[O-])cc2)nc2ccccc2c1=O
    0%, 1.8%, -12%, -9

# (next part)
canonical_smiles	miR-21 reporter	Rango-impB inh	Rango release inh	GLA inh pH 4.5
O=C(Nc1ccccc1F)OC1CN2CCC1CC2 (stereo not drawn)	-5%	-1.0%	1%	-2
COc1cc(/C=N/NP(=S)(c2ccccc2)c2ccccc2)ccc1O	1%	-0.7%	3%	1
CN1C(=O)C(Cc2cccs2)C(=O)N(C)C1=O	-5%	-0.2%	1%	3
CCc1cc2c(s1)N(CC(=O)OC)C(=O)CN=C2c1ccccc1OC	-5%	-0.2%	13%	1
C[C@@H]1O[C@@H](O[C@H]2C[C@@H](O)[C@]3(CO)[C@H]4[C@H](O)C[C@]5(C)[C@@H](C6COC(=O)C6)CC[C@]5(O)[C@@H]4CC[C@]3(O)C2)[C@H](O)[C@H](O)[C@H]1O (stereo partly drawn)	?	0.0%	?	1
CCCC(C)n1[nH]c(=O)c2c1NC(=O)CSC2c1ccc(OC)cc1 (stereo not drawn)	-6%	-2.1%	0%	-15
CC(NCc1ccc(Cl)cc1)C(O)c1ccccc1 (stereo not drawn)	-6%	1.6%	-9%	-2
Cc1cccc(-n2c(O)c(C=NC34CN5CN(CN(C5)C3)C4)c(=O)[nH]c2=O)c1	1%	-1.0%	14%	0
COC(=O)c1ccc(-n2c(C)nc3ccccc3c2=O)cc1	-12%	5.5%	3%	8
O=C1NC(=O)C2(Cc3ccccc3N3CCCC32)C(=O)N1c1cccc(Cl)c1 (stereo not drawn)	-6%	?	?	-9
Cc1ccc(N(C)C(=O)Oc2ccc(C(=O)c3ccc(Cl)cc3)cc2)cc1	-7%	0.5%	10%	-5
O=C(c1cccc2ccccc12)C1CCCN(C2CCC2)C1 (stereo not drawn)	-1%	-3.9%	11%	?
Clc1ccc(C2N3CCCN23)c(Cl)c1 (stereo not drawn)	2%	0.3%	16%	1
CCOC(=O)[C@]12Cc3cc4c(cc3[C@H]1N(Cc1ccccc1)C(=O)c1ccccc12)OCO4	.	0.8%	1%	.
O=c1cccc2n1CC1CC2CN(c2ncnc3c2cnn3-c2ccc(Cl)cc2)C1 (stereo not drawn)	-15%	-1.0%	-28%	5
CC1CCCN(c2ccc(C(=O)N3CCC4(CC3)OCCO4)cc2[N+](=O)[O-])C1 (stereo not drawn)	1%	?	-8%	1
CC1CCCCC1NC(=O)CNC(=S)N1CC2CC(C1)c1cccc(=O)n1C2 (stereo not drawn)	-1%	2.5%	19%	.
Cc1cccc(C(O)(C(=O)NNC(=O)CN2CCN(C)CC2)c2cccc(C)c2)c1	-2%	?	-15%	7
CN1CC2([N+](=O)[O-])CC=C(Cl)C([N+](=O)[O-])(C1)C2 (stereo not drawn)	-3%	1.0%	11%	-5
Clc1cccc(C2NCc3ccccc3-n3cccc32)c1 (stereo not drawn)	6%	-1.9%	1%	-4
CN1CCN(c2cccc3c2C(=O)c2ccccc2C3=O)CC1	-32%	-3.3%	-18%	1
CN(C)C(CNC(=O)Cc1ccc(Br)cc1)c1ccccc1 (stereo not drawn)	-6%	-0.5%	0%	.
CN1C(=O)/C(=C\N2CCc3ccccc32)C(=O)NC1=S	-10%	-1.4%	-17%	-6
COC(=O)c1ccc(COc2cc(C)cc3oc(=O)c4c(c23)CCCC4)o1	4%	0.1%	-6%	-28
O=C1CC(c2ccccc2)CC(O)=C1C=NCCN1CCN(C(=O)Cc2ccccc2)CC1 (stereo not drawn)	0%	2.3%	0%	-5
O=C1NC(=S)NC(=O)C1Cc1ccccc1O	.	1.1%	-7%	.
CC1CCC(NC(=O)CNC(=S)N2CC3CC(C2)c2cccc(=O)n2C3)CC1 (stereo not drawn)	1%	?	-23%	.
COc1ccc(-n2c(-c3ccco3)nc3ccccc3c2=O)cc1	-1%	3.3%	21%	-5
O=C1NC(=O)N(c2ccc(F)cc2)C(=O)/C1=C/c1ccc2c(c1)CCCN2Cc1ccccc1	14%	?	?	9
CC(=O)Nc1ccccc1C(=O)C(=O)Nc1cccc(C(=O)N2CCC3(CC2)OCCO3)c1	0%	-3.4%	4%	-3

# Record cards, from the list above:
# CC1CCC(NC(=O)CNC(=S)N2CC3CC(C2)c2cccc(=O)n2C3)CC1 (stereo not drawn) in the list: miR-21 reporter = 1%; Rango-impB inh = ?; Rango release inh = -23%; GLA inh pH 4.5 = .
# CC(=O)Nc1ccccc1C(=O)C(=O)Nc1cccc(C(=O)N2CCC3(CC2)OCCO3)c1 in the list: miR-21 reporter = 0%; Rango-impB inh = -3.4%; Rango release inh = 4%; GLA inh pH 4.5 = -3

# Screening data deposited in PubChem by National Center for Advancing Translational Sciences (NCATS).

# Only part of the results is shown, so the mix of outcomes need not match the whole.
